PINK1 modulator: A Quantitative High throughput Screen to Identify Chemical Modulators of PINK1 Expression; Potency, µM (series often up to 76.6 µM), inactives show at the top dose activation (PINK1 increase), most hits filed as activators; PINK1 immunofluorescence, high-content cytometry, 24 h; AID 624263, 2012; 410,000 tested, 0.2% active; active = well fitted activation curve with a large enough effect; inconclusive = small, poorly fitted or top-dose-only effect; inactive = flat fitted curve, though single readings scatter; cell line not stated here;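 also: % of control where 0% means no effect; nearly all actives have a fitted effect of over 65% in size; a mitochondrial uncoupler was the plate control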
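Stable cell line treated 24 h with compounds at 5 concentrations (CCCP controls), then fixed and immunostained for PINK1 plus nuclear and cell stains; PINK1 immunofluorescence quantified by laser-scanning microplate cytometry.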
* = called active by the depositor. Potency is read from the fitted curve at half-maximal effect.

PINK1 modulator,Molecule
0.2%,CC(C)(C)c1ccc(S(=O)(=O)N[C@H]2CC[C@@H](n3cc(C(=O)N4CCCC4)nn3)CC2)cc1
0.0%,CCn1ccc2cc(S(=O)(=O)N3CCC(C(=O)NCc4ccc(F)cc4)CC3)ccc21
0.6%,CCOC(=O)C1CCN(S(=O)(=O)c2cc(-c3cc(C)no3)ccc2OC)CC1
1.1%,CCS(=O)(=O)N1CCC2(CC1)OC(=O)C(C)=C2C(=O)NCc1ccc(OC)c(OC)c1
10%,CCOc1ccc(NC(=O)CSc2nnc3c(n2)[nH]c2ccc(S(=O)(=O)N4CCCCC4)cc23)cc1
-0.9%,O=C(CSCc1ccc(F)cc1)N1CCc2c([nH]c3ccccc23)C1c1ccc(F)cc1 (stereo unspecified)
0.2%,CCOC(=O)c1[nH]c(C)c(CCC(=O)Nc2cccc(SC)c2)c1C
0.2%,COc1ccc(-c2c3c(=O)n(C)c(=O)n(C)c3c3c(-c4ccccc4)nc4ccccc4n23)cc1
6.2%,Cc1ccc(N2CCN(S(=O)(=O)c3ccc4[nH]c5c(c4c3)CCCCC5)CC2)c(C)c1
2.3%,CCC(C)(C)NC(=O)Cn1c(=O)ccc2cc(S(=O)(=O)N3CCC(C)CC3)ccc21
0.6%,CCCC(=O)Nc1cc(C(=O)NCc2ccccc2)ccc1S(=O)(=O)c1ccc(Cl)cc1
-0.6%,CCNC(=O)c1ccc2nc(Cc3ccccc3)oc2c1
0.0%,COc1ccc(CCNCc2ccc3c(c2)n(C)c(=O)n3C)cc1OC
1.0%,CCOc1ccc(NC(=O)CSc2ncc3c(n2)-c2ccc(Cl)cc2N(Cc2ccccc2)S3(=O)=O)cc1
0.4%,COCCNC(=O)CCc1c(C)n(C)c2cc(-c3cc(OC)c(OC)c(OC)c3)nn2c1=O
0.4%,Cc1ccc(NC(=O)N2CCC(CN3CCCCCC3)CC2)c(Cl)c1
-1.9%,Cc1ccc(OCC(=O)NCC2(N(C)C)CCCCC2)cc1C
2.9%,CCOC(=O)c1c(C)oc2nc(C)nc(NCC3CCN(Cc4cc(C)ccc4C)CC3)c12
0.5%,CCOC(=O)CC(NC(=O)CCc1c(C)nc2c(c(C)nn2-c2ccc(C)c(C)c2)c1C)c1ccc(C)cc1 (stereo unspecified)
1.2%,CCc1ccc(-n2c(=O)c3cccnc3n2CC(=O)Nc2cc(OC)ccc2OC)cc1
0.0%,COc1ccc(CCNC(=O)C(=O)NCC(c2ccco2)S(=O)(=O)c2ccccc2)cc1OC (stereo unspecified)
0.6%,Cc1c(CC(=O)NCCc2ccccc2)c(=O)oc2c(C)c3occ(C(C)(C)C)c3cc12
1.2%,NS(=O)(=O)c1ccc(NC(=O)CSc2nnc3c(n2)[nH]c2ccccc23)cc1
1.4%,Cc1ccc(-n2ncc3c(NC4CCCCC4)ncnc32)cc1C

Quoted from the listing.
Value of CCc1ccc(-n2c(=O)c3cccnc3n2CC(=O)Nc2cc(OC)ccc2OC)cc1 under PINK1 modulator: 1.2%
Value of Cc1ccc(-n2ncc3c(NC4CCCCC4)ncnc32)cc1C under PINK1 modulator: 1.4%
Value of COc1ccc(CCNC(=O)C(=O)NCC(c2ccco2)S(=O)(=O)c2ccccc2)cc1OC (stereo unspecified) under PINK1 modulator: 0.0%
Value of Cc1c(CC(=O)NCCc2ccccc2)c(=O)oc2c(C)c3occ(C(C)(C)C)c3cc12 under PINK1 modulator: 0.6%

Next structures:
PINK1 modulator,Molecule
-0.4%,Cc1ccc(C)c(N2CCN(C(=O)Cn3c(=O)c4cccn4c4ccc(F)cc43)CC2)c1
0.9%,COCc1c(C(=O)N2CCN(c3ccccc3O)CC2)cnn1-c1nccc(-c2cccs2)n1
0.4%,Oc1cc(Nc2cccnc2)cc2cccnc12
0.2%,CC(C)C(NS(C)(=O)=O)c1nnc2n1CCN(Cc1ccnc3ccccc13)CC2 (stereo unspecified)
0.5%,CCOc1ccc(C(=O)NCCn2cc(SCC(=O)NCCc3ccc(OC)c(OC)c3)c3ccccc32)cc1
-1.1%,COc1ccc(C2CC(=O)c3cc(-c4nc(-c5cccc([N+](=O)[O-])c5)cs4)c(=O)n(-c4ccc(F)cc4)c3C2)cc1 (stereo unspecified)
-0.6%,O=C(CCn1c(=O)[nH]c2ccccc21)NCC1Cc2cc(Cl)cc(-c3ccncc3)c2O1 (stereo unspecified)
0.0%,CCOC(=O)Cc1ccc(NC(=O)N2CCC(CN3CCCCCC3)CC2)cc1

4 records drawn at random from the list so far, as already listed:
PINK1 modulator,Molecule
-0.6%,CCNC(=O)c1ccc2nc(Cc3ccccc3)oc2c1
-0.9%,O=C(CSCc1ccc(F)cc1)N1CCc2c([nH]c3ccccc23)C1c1ccc(F)cc1 (stereo unspecified)
-0.4%,Cc1ccc(C)c(N2CCN(C(=O)Cn3c(=O)c4cccn4c4ccc(F)cc43)CC2)c1
-0.6%,O=C(CCn1c(=O)[nH]c2ccccc21)NCC1Cc2cc(Cl)cc(-c3ccncc3)c2O1 (stereo unspecified)

Further results follow:
PINK1 modulator,Molecule
2.0%,Cc1ccc2nc(SCC(=O)NCC3Cc4cccc(-c5nc(C)cnc5C)c4O3)[nH]c2c1 (stereo unspecified)
3.9%,O=C(Nc1ccc2oc(-c3ccc(Cl)cc3)nc2c1)c1ccc2ccccc2c1
1.3%,COc1ccccc1S(=O)(=O)N1CCN(c2nc(-c3cccs3)nc3ccccc23)CC1
2.8%,Cc1cc2oc(C(=O)Nc3sc4c(c3C(=O)NCc3ccccc3)CCCC4)cc(=O)c2cc1C
1.6%,Cc1ccc(CSc2nc3cccnc3n2Cc2ccc(C(=O)NC3CCCCC3)cc2)cc1
-2.5%,CCc1cccc(N2C(=O)CS(=O)(=O)C23C(=O)N(Cc2ccccc2)c2ccc(C)cc23)c1 (stereo unspecified)
21%,O=c1oc2ccc3ccccc3c2cc1-c1nnc(Nc2ccccc2)s1
-0.7%,COc1ccc(CCNC(=O)c2ccc3c(c2)N(Cc2ccc(Cl)cc2)CCS3)c(OC)c1
15%,COc1ccc(OC)c(NC(=O)c2noc3c2CCCC3)c1
-1.1%,COCc1c(C(=O)N2CCC(c3ccccc3)CC2)cnn1-c1nccc(-c2cc(C)sc2C)n1
2.1%,O=C(CCC1N=C2c3ccccc3N=C(SCc3ccccc3F)N2C1=O)NC1CCCCC1 (stereo unspecified)
1.7%,Cc1cccc(OC(=O)c2cc(-c3ccc4c(c3)OCCO4)on2)c1C
-0.3%,CCC1(C2CCN(Cc3ccc(OC)cc3)CC2)NC(=O)N(CC2COc3ccccc3O2)C1=O (stereo unspecified)
10%,CCN1c2ccccc2-c2nc(SCC(=O)Nc3c(C)cc(C)cc3C)ncc2S1(=O)=O
-0.3%,COc1ccc2cc(CNCc3ccccc3C(F)(F)F)c(N3CCCC(CO)C3)nc2c1 (stereo unspecified)
-1.9%,CCN1C(=O)c2ccccc2S(=O)c2ccc(C(=O)NCc3ccc(F)cc3)cc21 (stereo unspecified)
-0.6%,COc1ccc(CCNC(=O)CCCn2c(=O)c3ccccc3n(CC(=O)Nc3ccccc3C)c2=O)cc1OC
2.9%,CC1=C(C(=O)Nc2ccccc2C)C(c2cccnc2)n2nc(SCc3ccccc3)nc2N1 (stereo unspecified)
-0.8%,CCOC(=O)c1c(NC(=O)/C=C/c2ccc(OCC)cc2)sc2c1CCCC2
1.0%,CCOC(=O)Cn1cnc2onc(-c3ccc(F)cc3)c2c1=O
1.2%,CCOc1ccc(NC(=O)CCc2c(C)nc3cc(-c4ccc(Cl)cc4)nn3c2C)cc1
-3.5%,COc1ccc(Nc2nc3ccccc3nc2NS(=O)(=O)c2ccc(Cl)cc2)cc1OC
2.6%,COC(=O)c1c(NC(C)=O)c2c3c(sc2n1Cc1cc(C)ccc1C)CCCC3
18%,COc1ccc2ncc3c(-c4ccc(C)c(C)c4)nn(CC(=O)NC4CCCCC4)c3c2c1
5.4%,Cc1cccc(-c2noc(-c3ccc(NCc4cccnc4)c([N+](=O)[O-])c3)n2)c1
3.6%,CC(C)Nc1ccc(-c2nc(-c3ccncc3)no2)cc1[N+](=O)[O-]
-0.9%,CN1C(C(=O)c2ccccc2)=C(NC(=O)c2ccc(F)cc2)c2ccccc2S1(=O)=O
3.8%,COc1ccc(CNC(=O)c2ccc(Cn3c(=O)c4cccn4c4cccnc43)cc2)c(OC)c1
0.8%,O=C(NCc1ccccc1Cl)C(=O)NCC(c1ccco1)S(=O)(=O)c1cccs1 (stereo unspecified)
0.3%,Cc1cc(C)n(-c2nnc(Nc3cc(Cl)ccc3C)c3ccccc23)n1
4.5%,COc1ccc2nc(NC(=O)c3nc(SCc4cccc(C)c4)ncc3Cl)sc2c1
1.2%,CCOC(=O)c1ccc(NC(=O)C2CCN(C(=O)N3CC(C)Oc4ccc(C)cc43)CC2)cc1 (stereo unspecified)
0.5%,CCN(C(=O)c1sc2nc3n(c(=O)c2c1C)CCCCC3)c1ccc(OC)cc1
1.0%,O=S(=O)(Nc1cccc(-c2ccc(N3CCOCC3)nn2)c1)c1ccccc1C(F)(F)F
-1.3%,CCOc1ccc(C(=O)Nc2ccc(-c3nc4cc(C)ccc4o3)cc2)cc1
2.3%,COc1cc(-c2ccno2)ccc1S(=O)(=O)N1CCN(c2ccc(F)cc2)CC1
2.1%,CCn1cc2nc(SCC(=O)Nc3ccccc3F)n(Cc3ccc(C)cc3)c(=O)c2n1
0.8%,O=C(c1cc2ccccc2[nH]1)c1cc2cc(O)ccc2[nH]1
-3.9%,COc1ccc(C(CC(=O)Nc2ccc(F)c(Cl)c2)N2Cc3ccccc3C2=O)cc1OC (stereo unspecified)
2.9%,COc1cc(Cl)c(NC(=O)C(NS(=O)(=O)c2cccs2)C(C)C)c(OC)c1 (stereo unspecified)
1.4%,CCOC(=O)c1c(-c2ccccc2)oc2ccc(OCc3ccccc3Br)cc12
-0.4%,COc1nc(-c2ccc3c(c2)OCO3)n(-c2ccc(NC(=O)CSc3ccccc3)cc2)n1
3.3%,COc1ccc(C2=C(C)C(N3CCC(C(=O)Nc4cc(C)ccc4C)CC3)=NS2(=O)=O)cc1
-0.7%,CCc1c(C)c2ccc3c(c2oc1=O)CN(Cc1ccccc1)CO3
3.0%,Cc1cc(C)c(NC(=O)Cn2c(=O)n(Cc3ccc(C(=O)NCc4ccc5c(c4)OCO5)cc3)c(=O)c3ccccc32)c(C)c1
1.6%,COc1ccc(-c2nn(-c3ccc(C)c(Cl)c3)c3c2cnc2cc(OC)c(OC)cc23)cc1
1.4%,CCCOc1ccc(C2c3c(oc4ccccc4c3=O)C(=O)N2c2nc(C)c(C(=O)OCC)s2)cc1 (stereo unspecified)
0.7%,CCc1ccc(-n2nc3cc(C)c(NC(=O)c4cc(OC)cc(OC)c4)cc3n2)cc1
1.9%,Cc1cc(C)c2oc(C(=O)Nc3sc4c(c3C(=O)NCc3ccco3)CCCC4)cc(=O)c2c1
-0.1%,COc1ccc(CNC(=O)C2CCN(Cc3nc(-c4ccc(OC)c(OC)c4)oc3C)CC2)cc1
0.2%,CCOc1ccc(NC(=O)COC(=O)c2ccccc2OCc2ccccc2Br)cc1
5.6%,CCOc1cccc(C(=O)Nc2nc3c(s2)CC(C(C)(C)C)CC3)c1 (stereo unspecified)
1.5%,CC1CC(=O)N(CC(=O)Nc2ccc(OC(F)(F)F)cc2)c2ccccc2S1 (stereo unspecified)
-3.8%,CC(=O)c1ccc(N2CCN(C(=O)Nc3cn(CC(C)C)c(=O)c4ccccc34)CC2)cc1
0.9%,COc1cc(C(=O)Nc2cc(C)ccc2OCc2cc(=O)n3cc(C)sc3n2)cc(OC)c1OC
11%,Cc1c(C(=O)NCCc2ccc(S(N)(=O)=O)cc2)sc2nc3n(c(=O)c12)CCCC3

Other structures:
PINK1 modulator,Molecule
-0.4%,Nc1ccc(NC(=O)c2cc(Cl)ccc2O)c(Cl)c1
0.8%,COc1ccc(NC(=O)CCS(=O)(=O)c2nc(-c3cccs3)cc(C(F)(F)F)n2)cc1OC
0.0%,Cc1c(C(=O)N2CCC(C)CC2)c(S(=O)(=O)Nc2ccc(OC(F)(F)F)cc2)c(C)n1C
0.7%,COc1ccc(OC)c(C(=O)c2c(N)c(-c3nc(-c4ccc(C)c(C)c4)cs3)c3ccccn23)c1
1.5%,O=C(Nc1ccc2[nH]c(=O)c(=O)[nH]c2c1)c1cccc(F)c1
3.4%,Cc1ccc(OCC(=O)N(Cc2nc(-c3ccccc3)no2)C(C)C)cc1C
5.9%,CCOc1ccc(NC(=O)CSc2nnc(-c3ccc(C)cc3)c(-c3ccc(C)cc3)n2)cc1
2.1%,CC1CN(Cc2cccn2-c2cccnc2)Cc2cc(Cl)ccc2O1 (stereo unspecified)

3 entries out of the list above, sorted by their value in PINK1 modulator, highest first.
| smiles | PINK1 modulator |
| --- | --- |
| COCCNC(=O)CCc1c(C)n(C)c2cc(-c3cc(OC)c(OC)c(OC)c3)nn2c1=O | 0.4% |
| COc1ccc2cc(CNCc3ccccc3C(F)(F)F)c(N3CCCC(CO)C3)nc2c1 (stereo unspecified) | -0.3% |
| COc1ccc(C2CC(=O)c3cc(-c4nc(-c5cccc([N+](=O)[O-])c5)cs4)c(=O)n(-c4ccc(F)cc4)c3C2)cc1 (stereo unspecified) | -1.1% |

(continued)
PINK1 modulator,Molecule
1.8%,COc1cccc(CNC(=O)CCc2cn(Cc3ccccc3Cl)c3ccccc23)c1
0.7%,O=C(Nc1ccc(F)cc1F)c1cc2c(=O)n3ccccc3nc2s1
3.9%,Cc1ccccc1C(=O)Nc1cc2c(cc1N1CCOCC1)n(C)c(=O)n2C
-1.7%,CC(C)CNC(=O)CCSc1nc(-c2ccc3c(c2)OCO3)cc(C(F)(F)F)n1
5.2%,COc1ccc(Cl)cc1Nc1ccc2cc(S(=O)(=O)N3CCCCC3)ccc2n1
0.5%,Cc1nc2c(-c3ccccc3)c(C)nn2c(C)c1CCC(=O)NCc1ccc(Cl)cc1
0.2%,CCCNC(=O)C1CCN(c2nc3ccc(C)cc3[nH]2)CC1

Assay outcomes as filed in PubChem BioAssay.

These rows are one share of the data. The share of hits here may be higher or lower than overall.
